Bioassay records deposited in PubChem BioAssay by Broad Institute.
FGF22 binding = binders of recombinant human FGF22 by thermal shift; 340,000 tested, 1.5% active; SYPRO orange fluorescence; percent of sucrose octasulfate shift, DMSO zero; calls only at 9.99 µM; Q9HCT0;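 active = melting point raised past a set limit in the mean and every replicate; three in four hits are not shown here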
Target sequence (Q9HCT0 whole entry, looked up): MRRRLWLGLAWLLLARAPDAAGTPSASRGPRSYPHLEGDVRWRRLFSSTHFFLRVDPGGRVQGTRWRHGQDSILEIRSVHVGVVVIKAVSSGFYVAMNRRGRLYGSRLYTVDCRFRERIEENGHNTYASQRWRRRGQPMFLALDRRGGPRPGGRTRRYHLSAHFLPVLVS
MLL AF4-AF9 inh = MLL-AF4/AF9 protein interaction inhibition | AID 651704 | AlphaScreen, biotin-AF4 peptide binding to FLAG-AF9 | 350,000 tested, 0.47% active | P42568 | inhibition, % at 10 µM;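 active = every replicate reaching a set inhibition limit, whatever the replicate mean, cut at about 25% in these data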;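 also: 0% = plate neutral control median and 100% = total signal loss; the record names both 10 and 1 µM as test concentration; the first replicate is given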
Target sequence (P42568 whole entry, looked up): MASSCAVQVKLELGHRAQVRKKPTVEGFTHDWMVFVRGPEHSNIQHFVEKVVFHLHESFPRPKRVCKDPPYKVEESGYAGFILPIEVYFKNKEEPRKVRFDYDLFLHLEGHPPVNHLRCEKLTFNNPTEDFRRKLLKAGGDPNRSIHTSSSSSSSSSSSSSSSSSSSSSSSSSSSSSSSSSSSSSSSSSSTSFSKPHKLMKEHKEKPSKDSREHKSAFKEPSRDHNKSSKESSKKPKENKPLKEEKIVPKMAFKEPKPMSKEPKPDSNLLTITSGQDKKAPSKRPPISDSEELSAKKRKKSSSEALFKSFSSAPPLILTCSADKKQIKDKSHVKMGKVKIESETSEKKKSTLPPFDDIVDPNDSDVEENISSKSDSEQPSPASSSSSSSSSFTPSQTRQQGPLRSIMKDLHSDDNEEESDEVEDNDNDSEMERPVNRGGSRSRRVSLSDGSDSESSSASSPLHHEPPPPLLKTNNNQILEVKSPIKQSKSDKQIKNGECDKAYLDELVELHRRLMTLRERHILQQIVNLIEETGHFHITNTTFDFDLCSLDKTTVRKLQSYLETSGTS
The depositor's hits bear a star; i = inactive; & = joins results of further samples. A portion of the library; the hit share may differ from the screen's.

Each structure is followed by: FGF22 binding | MLL AF4-AF9 inh
> CN1c2ccc(-c3ccccc3)cc2[C@@H]2[C@@H](CCN2C(=O)c2ccccc2F)[C@@H]1CO
  i | -1.9
> C[C@H]1CN([C@@H](C)CO)C(=O)c2cccc(NS(=O)(=O)c3ccc(F)cc3)c2O[C@H]1CN(C)CC1CCCCC1
  i | -5.2
> C[C@H](CO)N1C[C@H](C)[C@H](CN(C)C(=O)Nc2ccc(F)cc2)Oc2ccc(NC(=O)Nc3ccccc3)cc2C1=O
  i | 3.5
> COc1ccc(NC(=O)Nc2cccc3c2O[C@@H](CN(C)C(=O)Nc2c(C)noc2C)[C@@H](C)CN([C@H](C)CO)C3=O)cc1
  i | -0.8
> COc1ccc(S(=O)(=O)N(C)C[C@H]2Oc3ccc(NS(=O)(=O)c4ccc(F)cc4)cc3CC(=O)N([C@@H](C)CO)C[C@H]2C)cc1
  i | -0.4
> C[C@H](CO)N1C[C@H](C)[C@H](CN(C)Cc2ccncc2)Oc2ccc(NC(=O)Nc3ccc(F)cc3)cc2CC1=O
  i | -0.1
> COc1ccc(-c2cscc2N)cc1
  i | 12
> CC(C)CC#Cc1cnc2c(c1)C(=O)N([C@H](C)CO)C[C@H](C)[C@@H](CN(C)C(=O)C1CCCCC1)O2
  i | 0.8
> COc1ccc(NC(=O)Nc2cccc3c2O[C@@H](CN(C)S(=O)(=O)c2ccc(C)cc2)[C@H](C)CN([C@@H](C)CO)C3=O)cc1
  i | 2.2
> O=C(NCc1ccccc1)[C@H]1[C@H](CO)[C@H]2Cn3c(cccc3=O)[C@@H]1N2CC1CCCC1
  i | -1.8
> CC(C)N(C[C@H]1N[C@H](CO)[C@@H]1c1ccccc1)C(=O)CN1CCOCC1
  i | -1.5
> C[C@H](CO)N1C[C@H](C)[C@H](CN(C)C)Oc2c(NS(=O)(=O)c3cccs3)cccc2C1=O
  i | -3.2
> COC(=O)[C@H]1[C@H](CO)[C@H]2Cn3c(ccc(-c4cccnc4)c3=O)[C@H]2N1Cc1cccc(F)c1
  i | -7.3
> O=C(Nc1ccc(F)cc1)N1C[C@H]2[C@@H](c3ccccc31)[C@@H](CO)N2C(=O)c1ccncc1
  i | -0.2
> C[C@@H]1CN([C@@H](C)CO)S(=O)(=O)c2ccc(C#Cc3ccccn3)cc2O[C@@H]1CN(C)Cc1ccc(F)cc1
  i | -1.2
> Cn1cnc(S(=O)(=O)N[C@H]2C=C[C@H](CC(=O)Nc3ccc(-c4ccccc4)cc3)O[C@H]2CO)c1
  i | 1.0
> O=C(Nc1ccc(F)cc1)N1CC(=O)N2[C@@H](CO)[C@@H](c3ccc(C4=CCCC4)cc3)[C@@H]2C1
  i | -2.3
> C[C@H]1CN([C@@H](C)CO)C(=O)c2cc(NC(=O)C3CC3)ccc2O[C@@H]1CN(C)Cc1ccccc1
  i | 1.6
> CN1c2ccc(-c3cccc(F)c3)cc2[C@H]2[C@H](CCN2C(=O)Cc2cccnc2)[C@@H]1CO
  i | -0.5
> CC(C)NC(=O)N(C)C[C@@H]1Oc2c(NC(=O)Nc3ccccc3)cccc2C(=O)N([C@@H](C)CO)C[C@@H]1C
  i | -2.3
> C[C@@H]1CN([C@@H](C)CO)C(=O)Cc2cc(NC(=O)Nc3ccccc3)ccc2O[C@H]1CN(C)Cc1ccc(Cl)c(Cl)c1
  i | -3.7
> COc1ccc(S(=O)(=O)N(C)C[C@@H]2Oc3ccc(NC(=O)NC(C)C)cc3CC(=O)N([C@H](C)CO)C[C@@H]2C)cc1
  i | -0.2
> Cc1noc(C)c1NC(=O)Nc1ccc2c(c1)C(=O)N([C@@H](C)CO)C[C@@H](C)[C@@H](CN(C)C(=O)Nc1ccc3c(c1)OCO3)O2
  i | 2.5
> C[C@H]1CN([C@@H](C)CO)C(=O)c2cc(NC(=O)Cn3cnnn3)ccc2O[C@@H]1CN(C)Cc1ccc(C(=O)Nc2ccccc2N)cc1
  i | 3.5
> CN1CCN(C(=O)C[C@H]2CC[C@@H](NC(=O)Cc3ccccn3)[C@@H](CO)O2)CC1
  i | -1.4
> CCCNC(=O)N(C)C[C@H]1Oc2cc(C#C[C@H](C)O)ccc2S(=O)(=O)N([C@@H](C)CO)C[C@H]1C
  i | -0.6
> COc1ccc(S(=O)(=O)Nc2ccc3c(c2)C(=O)N([C@H](C)CO)C[C@H](C)[C@@H](CN(C)C(=O)Nc2cccc4ccccc24)O3)cc1
  i | 0.0
> CCN1[C@@H]2Cn3c(ccc(-c4ccccc4)c3=O)[C@H]1[C@@H](C(=O)NCCCN1CCOCC1)[C@@H]2CO
  i | -0.2
> COc1ccccc1C#Cc1ccc2c(c1)O[C@H](CN(C)Cc1ccccc1)[C@@H](C)CN([C@@H](C)CO)S2(=O)=O
  i | 0.2
> O=C(C[C@H]1C=C[C@@H](NC(=O)Nc2ccccc2F)[C@H](CO)O1)NCc1ccc(-c2ccccc2)cc1
  i | 2.6

Sorted by SMILES length (ascending): part of the list above
Each structure is followed by: FGF22 binding | MLL AF4-AF9 inh
> COc1ccc(-c2cscc2N)cc1
  i | 12
> CC(C)CC#Cc1cnc2c(c1)C(=O)N([C@H](C)CO)C[C@H](C)[C@@H](CN(C)C(=O)C1CCCCC1)O2
  i | 0.8
> COc1ccc(S(=O)(=O)N(C)C[C@H]2Oc3ccc(NS(=O)(=O)c4ccc(F)cc4)cc3CC(=O)N([C@@H](C)CO)C[C@H]2C)cc1
  i | -0.4
> COc1ccc(S(=O)(=O)Nc2ccc3c(c2)C(=O)N([C@H](C)CO)C[C@H](C)[C@@H](CN(C)C(=O)Nc2cccc4ccccc24)O3)cc1
  i | 0.0

(further entries)
Each structure is followed by: FGF22 binding | MLL AF4-AF9 inh
> C[C@@H]1CN([C@H](C)CO)C(=O)c2cc(NC(=O)Nc3ccc4c(c3)OCO4)ccc2O[C@@H](C)CCCCO[C@H]1CN(C)Cc1ccc(C(F)(F)F)cc1
  i | 3.3
> C[C@H]1CN([C@@H](C)CO)C(=O)c2cccc(NC(=O)Nc3ccc(F)cc3)c2O[C@H]1CN(C)C(=O)Nc1ccc(F)cc1
  i | 3.5
> O=C(Nc1cccc(F)c1)N[C@H]1CC[C@H](CCn2cc(Cc3ccccc3)nn2)O[C@@H]1CO
  i | -0.3
> O=C(NCC[C@H]1CC[C@@H](NS(=O)(=O)c2cccc(F)c2)[C@@H](CO)O1)C1CCCC1
  i | -3.4
> CNC[C@H]1Oc2cc(C#Cc3ccccc3F)ccc2S(=O)(=O)N([C@H](C)CO)C[C@@H]1C
  i | 7.4
> C[C@@H]1CN([C@@H](C)CO)C(=O)Cc2cc(NS(=O)(=O)c3cn(C)cn3)ccc2O[C@H]1CN(C)C
  i | -1.6
> CN(C)c1ccc2c(c1)[C@H]1C[C@H](CC(=O)NCc3ccc(Oc4ccccc4)cc3)O[C@H](CO)[C@H]1O2
  i | 16
> N#C[C@H]1[C@H](c2ccc(C#CC3CCCC3)cc2)[C@H](CO)N1C(=O)Nc1ccc(F)cc1
  i | 0.3
> C[C@H](CO)N1C[C@H](C)[C@H](CN(C)Cc2ccc(C(=O)O)cc2)OCCCC[C@H](C)Oc2ccc(NC(=O)Cc3ccccc3)cc2C1=O
  i | 0.9
> Cc1ccc(S(=O)(=O)N(C)C[C@H]2Oc3ccc(NC(=O)Nc4ccc(F)cc4)cc3CC(=O)N([C@H](C)CO)C[C@@H]2C)cc1
  i | 2.0
> C[C@H](CO)N1C[C@H](C)[C@H](CN(C)Cc2ccccn2)Oc2cc(-c3ccncc3)ccc2S1(=O)=O
  i | -3.1
> CNC[C@H]1Oc2ccc(NC(=O)CCN3CCOCC3)cc2C(=O)N([C@@H](C)CO)C[C@H]1C
  i | -0.9
> C[C@H]1CN([C@@H](C)CO)C(=O)Cc2cc(NS(=O)(=O)c3ccccc3)ccc2O[C@H]1CN(C)Cc1ccc2c(c1)OCO2
  i | 1.1
> CCCC#Cc1cnc2c(c1)C(=O)N([C@@H](C)CO)C[C@H](C)[C@H](CN(C)C(=O)NCCC)O2
  i | -6.9
> COCC#Cc1ccc2c(c1)O[C@@H](CN(C)C(=O)C1CCCCC1)[C@@H](C)CN([C@H](C)CO)S2(=O)=O
  i | -1.1
> O=C(c1cccnc1)N1CCCCN2[C@H](CO)[C@@H](c3ccc(C#Cc4ccccn4)cc3)[C@@H]2C1
  i | -9.6
> Cc1noc(C)c1NC(=O)N(C)C[C@H]1Oc2c(NS(=O)(=O)c3c(C)noc3C)cccc2C(=O)N([C@@H](C)CO)C[C@H]1C
  i | -2.4
> COCC#Cc1cnc2c(c1)C(=O)N([C@@H](C)CO)C[C@@H](C)[C@H](CN(C)C(=O)c1cccc(F)c1)O2
  i | -2.5
> Cc1noc(C)c1S(=O)(=O)N(C)C[C@@H]1Oc2ccc(NC(=O)Cc3cn(C)c4ccccc34)cc2CC(=O)N([C@H](C)CO)C[C@H]1C
  i | 4.9
> CCC(=O)N1CCCCN2[C@H](CO)[C@@H](c3ccc(C#CCOC)cc3)[C@@H]2C1
  i | -4.8
> C[C@@H]1CN([C@H](C)CO)C(=O)Cc2cc(NC(=O)Nc3ccc(C(F)(F)F)cc3)ccc2O[C@@H]1CN(C)Cc1ccc2c(c1)OCO2
  i | 1.3
> CCCNC(=O)N1CC2(C1)CN(Cc1cccc(OC)c1)[C@H](CO)c1[nH]c3cc(OC)ccc3c12
  i | 1.0
> C[C@@H]1CN([C@H](C)CO)C(=O)c2cccc(NC(=O)c3ccc(-c4nccs4)cc3)c2O[C@H]1CN(C)C(=O)NC1CCCCC1
  i | -1.3
> C[C@@H]1CN([C@@H](C)CO)C(=O)c2cccc(NC(=O)C3CC3)c2O[C@@H]1CN(C)S(=O)(=O)c1cccs1
  i | 1.3
> C[C@@H]1CCCCO[C@@H](CN(C)CC2CC2)[C@H](C)CN([C@@H](C)CO)C(=O)c2cc(NC(=O)c3ccccc3)ccc2O1
  i | 1.5
> C[C@@H]1CCCCO[C@H](CN(C)S(=O)(=O)c2cccs2)[C@@H](C)CN([C@@H](C)CO)C(=O)c2cc(NS(=O)(=O)c3ccc(F)cc3)ccc2O1
  i | -1.9
> CC(C)NC(=O)Nc1ccc2c(c1)C(=O)N([C@H](C)CO)C[C@@H](C)[C@@H](CN(C)C(=O)CCC(F)(F)F)OCCCC[C@@H](C)O2
  i | -3.3
> CC(=O)O[C@@H]1C=C[C@@H](C#Cc2ccc(C(C)(C)C)cc2)O[C@@H]1COC(=O)NC(C)C
  i | 2.7
> COc1cccc(-c2ccc3c(c2)[C@H]2[C@H](CCN2C(=O)NC2CCCC2)[C@H](CO)N3C)c1
  i | 4.7
> CC(C)CC#Cc1cnc2c(c1)C(=O)N([C@H](C)CO)C[C@H](C)[C@H](CN(C)S(=O)(=O)c1ccccc1)O2
  i | -0.5&-4.7

Carrying on.
SMILES	FGF22 binding	MLL AF4-AF9 inh
CO[C@@H]1CN(C)C(=O)c2ccc(NC(=O)c3ccccc3)cc2OC[C@H](C)N(C(=O)CN(C)C)C[C@@H]1C	i	-5.1
C[C@H]1CN([C@@H](C)CO)C(=O)c2cc(NC(=O)Nc3cccc4ccccc34)ccc2O[C@H]1CN(C)S(=O)(=O)c1ccc(F)cc1	i	0.6
CCCN1C[C@H](C)[C@@H](OC)CN(C)C(=O)c2ccc(NC(=O)c3cccc(F)c3)cc2OC[C@H]1C	i	45*
CC(=O)N1[C@@H]2c3ccc(-c4ccccc4)c(=O)n3C[C@H]1[C@H](CO)[C@H]2C(=O)NCC1CC1	i	-0.1
CC=Cc1ccc2n(c1=O)C[C@H]1[C@H](CO)[C@@H](C(=O)NCCC)N(C(=O)CC)[C@@H]21 (mixture of isomers)	i	-1.6
CN(C)C(=O)C[C@H]1C[C@H]2c3cc(NS(=O)(=O)c4ccccc4)ccc3O[C@H]2[C@H](CO)O1	i	-2.2
O=C(C1CC1)N1CC[C@@H]2[C@@H](CO)Nc3ccc(-c4ccc(F)cc4)cc3[C@@H]21	i	5.5
COc1ccc(S(=O)(=O)Nc2ccc3c(c2)C(=O)N([C@H](C)CO)C[C@@H](C)[C@H](CN(C)Cc2ccc(C(F)(F)F)cc2)O3)cc1	i	1.0
CS(=O)(=O)Nc1ccc2c(c1)[C@H]1C[C@H](CC(=O)N3CCc4ccccc4C3)O[C@@H](CO)[C@H]1O2	i	-0.5
CC(C)CC#Cc1ccc2c(c1)O[C@@H](CN(C)C(=O)NC1CCCC1)[C@@H](C)CN([C@@H](C)CO)S2(=O)=O	i	1.0
C[C@H]1CN([C@@H](C)CO)C(=O)c2cc(NC(=O)Nc3ccc(C(F)(F)F)cc3)ccc2O[C@@H]1CN(C)Cc1ccc(C(=O)O)cc1	i	-1.2
COc1ccc(S(=O)(=O)Nc2ccc3c(c2)C(=O)N([C@H](C)CO)C[C@@H](C)[C@H](CN(C)Cc2ccc4c(c2)OCO4)OCCCC[C@@H](C)O3)cc1	i	0.1
C[C@H](CO)N1C[C@H](C)[C@@H](CN(C)Cc2ccc3c(c2)OCO3)Oc2ccc(NC(=O)Cn3cnnn3)cc2CC1=O	i	7.5
O=C(N[C@H]1CC[C@@H](CCn2cc(-c3ccccn3)nn2)O[C@@H]1CO)c1cccnc1	i	0.2
CN(C)CC#Cc1ccc([C@@H]2[C@H]3CN(C(=O)Nc4ccc(F)cc4)CCCCN3[C@H]2CO)cc1	i	-1.3
C[C@H]1CCCCO[C@H](CN(C)C)[C@@H](C)CN([C@@H](C)CO)C(=O)c2cc(NC(=O)CCCN(C)C)ccc2O1	i	-0.1
CCC(=O)N1C[C@@H](C)[C@@H](OC)CN(C)C(=O)c2ccc(NC(=O)COC)cc2OC[C@H]1C	i	-6.5

Three of the entries above in order of the MLL AF4-AF9 inh value, descending:
| SMILES | MLL AF4-AF9 inh |
| --- | --- |
| O=C(C1CC1)N1CC[C@@H]2[C@@H](CO)Nc3ccc(-c4ccc(F)cc4)cc3[C@@H]21 | 5.5 |
| O=C(N[C@H]1CC[C@@H](CCn2cc(-c3ccccn3)nn2)O[C@@H]1CO)c1cccnc1 | 0.2 |
| C[C@H]1CCCCO[C@H](CN(C)C)[C@@H](C)CN([C@@H](C)CO)C(=O)c2cc(NC(=O)CCCN(C)C)ccc2O1 | -0.1 |
